# Screening data as filed in PubChem.
# D2 ag: agonists of human D2 dopamine receptor (beta-arrestin) | activation, % (no concentration beside the values) | hit rate 0.084% among 360,000 | DiscoveRx PathHunter D2 beta-arrestin, luminescence, 90 min; 100% = 57 uM dopamine signal; in the data active = activation above about 40%; inconclusive = about 15% to 40%; inactive = below about 15%; also: compound concentration not given in the record; the text of the record calls up to 30% inactive
# Target sequence (P14416 whole entry, looked up): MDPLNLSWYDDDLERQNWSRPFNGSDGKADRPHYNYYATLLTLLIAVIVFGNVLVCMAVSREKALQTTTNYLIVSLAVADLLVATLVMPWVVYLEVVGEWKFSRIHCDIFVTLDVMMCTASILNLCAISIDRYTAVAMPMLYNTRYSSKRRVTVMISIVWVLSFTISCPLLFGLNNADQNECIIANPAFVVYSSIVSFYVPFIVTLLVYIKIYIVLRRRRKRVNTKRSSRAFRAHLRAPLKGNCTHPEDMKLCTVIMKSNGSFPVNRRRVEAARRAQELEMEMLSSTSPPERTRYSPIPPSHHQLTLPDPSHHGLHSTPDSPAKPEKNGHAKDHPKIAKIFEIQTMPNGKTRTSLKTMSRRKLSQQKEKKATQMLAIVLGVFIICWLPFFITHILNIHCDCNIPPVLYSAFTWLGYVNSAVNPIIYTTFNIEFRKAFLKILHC
#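 DiscoveRx PathHunter D2 beta-arrestin cells (2,100/well) attached overnight, then compound-stimulated 90 min at 37 C in HBSS/10 mM HEPES/0.1% Tween-20 buffer; beta-galactosidase complementation read by luminescence after 1 h at ambient temperature. Dopamine 57 uM final (EC100) as control.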
# D2 PAM: potentiates the human D2 dopamine receptor allosterically. P14416. DiscoveRx D2 beta-arrestin cells, luminescence, 90 min; 100% = 57 uM dopamine signal. potentiation, % (test concentration not listed). hit rate 0.23% among 360,000. AID 624464; active = potentiation of 50% or more; inconclusive = 30% to 50%; inactive = 30% or less;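 also: compound concentration not given in the record; tested on top of an EC20 dose of dopamine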
#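 PathHunter D2 cells, attached overnight at 37 deg C, received compound in DMSO plus dopamine at EC20 (50 nM final) for 90 min at 37 deg C. Beta-arrestin recruitment was read as luminescence after 1 h with detection reagent at ambient temperature.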
# CtBP-E1A inh: inhibitors of CtBP/E1A interaction; AlphaScreen GST-E1A/His-CtBP binding, 1536-well; hits give low values; control for the full effect not named in the record; activity change, % (concentration not given with the values); hit rate 0.49% among 340,000; AID 651724; in the data active means activity change below about -65%; inconclusive means about -30% to -65%; inactive means above about -30%; also: % is scaled to controls: 0 for no effect and ±100 for the full control effect
#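 Protein mix (5X: 125 nM each GST-E1A, His-CtBP) was incubated with pinned compound 2 h at 37 deg C in dark, in 50 mM Tris pH 8.0 buffer with 300 mM NaCl. Glutathione donor and nickel acceptor beads followed; AlphaScreen signal read after 1 h.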
# gsp antag: antagonists of gsp mutant (McCune-Albright syndrome); gsp-mutant cells, cAMP HTRF, 30 min; control for the full effect not named in the record; hit rate 0.4% among 340,000; Potency, µM (series often up to 76.9 µM), without a hit: top-dose activity change, negative = inhibition, usual class: inhibitors; AID 624288; active = falling curve of any shape with a large fitted effect; inconclusive = falling curve, mostly with a smaller effect; inactive = flat or rising curve; cell line not stated here;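 also: intracellular cAMP measured with PDE inhibitor Ro 20-1724 present during compound exposure; potency is read from the fitted curve at half-maximal effect; % is scaled to controls: 0 for no effect and ±100 for the full control effect; nearly all actives have a fitted effect of over 65% in size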
#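 HTRF cAMP measurement after 30 min RT detection following 30 min, 37C compound treatment alongside […] (added as 300 uM solution) in G418-selected cells seeded at 2000/well and grown 16–24 h.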
# gsp agonist: activates gsp, the McCune-Albright syndrome mutation | gsp mutant cells, cAMP HTRF, 30 min; control for the full effect not named in the record | Potency, µM (doses to about 76.9 µM), for inactives: top-dose activation (cAMP increase), hits mostly activators | hit rate 0.13% among 340,000 | AID 624287; active = well fitted activation curve with a large enough effect; inconclusive = small, poorly fitted or top-dose-only effect, or another doubt; inactive = no such curve, though single readings can be large or run the other way; cell line not stated here;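 also: phosphodiesterase inhibitor Ro 20-1724 added with compounds to block cAMP breakdown; potency is read from the fitted curve at half-maximal effect; nearly all actives have a fitted effect of over 60% in size; about a fifth of the inactives were tested at one dose only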
#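 Cells in DMEM/10% FBS with G418 were pretreated with compounds in DMSO plus […] (300 uM stock) for 30 min at 37C. cAMP was measured by HTRF (cAMP-d2 plus anti-cAMP antibody-K) after 30 min at room temperature.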
# Six1-Eya2 blk: inhibitors of human Six1/Eya2 interaction. Q15475+O00167. AlphaScreen GST-Six1/His-Eya2 binding, biochemical; hits give low values; control for the full effect not named in the record. activity change, % (test concentration not listed). hit rate 0.56% among 360,000. AID 651725; in the data active = activity change below about -65%; inconclusive = about -30% to -65%; inactive = above about -30%; also: % is scaled to controls: 0 for no effect and ±100 for the full control effect; compound concentration not given in the record
#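 Six1/Eya2 binding was read as AlphaScreen signal after compounds were pinned into GST-Six1 plus His-tagged Eya2 (5X stock 250/500 nM) in pH 8.0 Tris/NaCl/TCEP buffer, beads added, then incubated 1 h, 37 C, dark.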
# Starred values were filed as active, the others as inactive; ? = inconclusive; . = no result given; [ ] = remark or other dose.
structure | D2 ag | D2 PAM | CtBP-E1A inh | gsp antag | gsp agonist | Six1-Eya2 blk
CCc1nnc(NC(=O)[C@@H](NC(=O)c2ccc(OC)cc2)C(C)C)s1 | -5.7 | -11 | 10 | -1% | -14%[15.4 µM] | -4
COc1cc(COC(=O)Oc2ccc(CNC(C)=O)cc2OC)c([N+](=O)[O-])cc1OC | 0.1 | -17 | -4 | -8% | -39%[inhibitor] | -11
C=CC1=CCN(S(=O)C(C)(C)C)[C@H]1CCO (stereo partly drawn) | -1.2 | . | 4 | 1% | . | 8
CN1C(=O)C2(C(C#N)=C(N)N(c3ccc(Cl)cc3)C3=C2C(=O)CC(C)(C)C3)c2ccccc21 (stereo not drawn) | -2.5 | -1 | 1 | -12% | 3% | 6
CSc1cccc(NC(=O)C2CC(=O)N(Cc3ccccc3)C2)c1 (stereo not drawn) | -3.9 | -18 | 0 | 0% | -14% | 4
Cc1ccc(C(=O)O/N=C(\N)c2nonc2N)cc1 | 3.1 | 2 | 9 | 16% | 6%[15.4 µM] | 2
Cc1ccc2c(c1)N(CCC(=O)NCC1COc3ccccc3O1)C(=O)CO2 (stereo not drawn) | -0.2 | -6 | -2 | 0% | 9% | -2
O=C(c1ccco1)N(Cc1cccc(Cl)c1)C1CCS(=O)(=O)C1 (stereo not drawn) | -2.6 | -4 | 10 | 14% | 3% | 5
CN1C[C@@H]2C(c3ccc(C(F)(F)F)cc3)C3(c4cccnc4)CC2(C3)[C@H]1c1ccccc1 (stereo partly drawn) | -4.1 | -11 | -17 | -10% | . | -26
O=C1C2C3C=CC(C4CC34)C2C(=O)N1Cc1ccco1 (stereo not drawn) | 2.8 | -18 | 3 | 13% | ? | -2
C[C@H]1CN([C@@H](C)CO)C(=O)c2c(c3ccccc3n2C)-c2ccccc2CO[C@H]1CN(C)C(=O)[C@@H]1CCCN1C | -1.5 | 3 | -11 | . | 9% | 6
CCCOc1ccc(C(=O)CCC(=O)Nc2ccc(N3CCN(C)CC3)cc2)cc1 | 1.9 | -5 | -9 | 15% | ? | -13
CCNc1nc(NC(C)(C)C)nc(N2CCCCC2)n1 | -1.0 | -7 | ? | -6% | -14% | -5
COc1cc2[nH]c(=O)c(C(=O)NCc3ccccc3Cl)c(O)c2cc1OC | 0.6 | 6 | -3 | 9% | -2%[15.4 µM] | 4
O=C(CN1CCCCCC1)Nc1ccccc1[N+](=O)[O-] | -5.2 | -18 | . | 5% | -42%[inhibitor] | 1
O=C(O)C(Cc1cccs1)c1cccs1 (stereo not drawn) | -1.7 | -8 | 18 | 3% | ? | 8
Nc1ncccc1OCc1ccc(Br)cc1 | -0.9 | -2 | -8 | -10% | -11%[15.4 µM] | -12
c1cncc(-c2nn3c(Cn4nnc5ccccc54)nnc3s2)c1 | 0.4 | -6 | 2 | 21% | ? | -1
CCN1CCN(C(=O)/C=C/c2ccc([N+](=O)[O-])cc2)CC1 | -2.4 | -10 | -5 | 6% | -47%[inhibitor] | -1
COc1ccc2[nH]c3c(=O)n(CCN4CCOCC4)cnc3c2c1 | 0.8 | 1 | 0 | 9% | 15%[15.4 µM] | -4
O=C(O)c1ccc(NCc2nc3ccccc3n2Cc2ccccc2F)cc1 | -6.5 | -5 | -4 | -15% | 2% | 0
Cc1ccc(-c2cnc3c(c2)C(=O)N([C@H](C)CO)C[C@H](C)[C@@H](CN(C)Cc2ccccc2F)O3)cc1 | -11 | -8 | -3 | . | ? | -17
COc1ccc(C2c3c(-c4ccccc4O)n[nH]c3C(=O)N2Cc2ccco2)cc1OC (stereo not drawn) | 0.1 | -2 | -18 | 2% | 5%[15.4 µM] | -10
COc1ccc2nc(NC(=O)c3ccc(NS(=O)(=O)c4cccs4)cc3)sc2c1 | -0.3 | -8 | -27 | -27% | 23% | -22
CCn1c(O)c(N=NC(=O)CNC(=O)Cc2ccccc2)c2ccccc21 | -3.6 | -17 | -13 | -6% | 1% | -1
CCOC(=O)c1c(C)[n+](-c2ccc(C)cc2)c(CC)c2cc(OC)c(OC)cc12 | -9.1 | -9 | . | -5% | -10% | 19
Cc1ccc(/C(O)=C2/C(=O)C(=O)N(CCN3CCOCC3)C2c2cccnc2)cc1 (stereo not drawn) | -3.0 | -2 | 44 | 8% | 13% | 24
COc1cc(NC(=O)CCN2CCN(Cc3ccccc3)CC2)cc(OC)c1 | -2.6 | -30 | -2 | 3% | -24% | -2
CC1=CC(C)C2(COC(=O)Nc3ccccc3)COC(C)C1C2C (stereo not drawn) | -0.3 | -3 | 3 | -4% | -2%[15.4 µM] | 4
Cc1cc(C(=O)N2CCC2(C)C(=O)NS(=O)(=O)c2cccc(OC(F)F)c2)nn1C (stereo not drawn) | -6.8 | -6 | 15 | . | . | 5
CCCc1cc(C(=O)N2CCCC(Cc3ccccc3C)(C(=O)OCC)C2)no1 (stereo not drawn) | 3.6 | -9 | 6 | -9% | -5% | 4
CC(=O)N1CCOc2ccc(S(=O)(=O)N3CCC(C)CC3)cc21 | -1.0 | -2 | 2 | 4% | ? | 4
CCn1c(CNC(=O)c2ccc(OC)c(OC)c2)nnc1SCC(=O)Nc1ccccc1 | -2.4 | -12 | 6 | -1% | 26%[15.4 µM] | -12
COc1ccc(CCNC(=O)c2ccc(Cl)cc2)cc1OC | -7.5 | -6 | 0 | -4% | -27%[15.4 µM] | 4
COc1cccc(-c2nnc(-c3ccccc3[N+](=O)[O-])o2)c1 | 1.2 | -6 | -14 | 4% | -4%[15.4 µM] | -19
C[C@H](CO)N1C[C@H](C)[C@@H](CN(C)S(C)(=O)=O)Oc2ccc(NC(=O)CCC(F)(F)F)cc2C1=O | -1.8 | 0 | -1 | -5% | -4% | 12
C=CC[N+](C)(C)c1ccc(CCC(=O)CCc2ccc([N+](C)(C)CC=C)cc2)cc1 | -2.9 | 4 | 5 | 2% | . | -4
COc1ccc2cc(C(c3nnnn3CCc3ccccc3)N3CCCC(C)C3)c(=O)[nH]c2c1 (stereo not drawn) | 1.0 | 11 | 48 | -22% | -24% | 15
Cc1ccccc1-n1nc(C)c2cc(C(=O)NCc3cccnc3)sc21 | -1.6 | -14 | -8 | ? | -18% | -4
Cc1noc(NS(=O)(=O)c2ccc(N/C=C/C(=O)c3ccc4c(c3)OCO4)cc2)c1C | -2.7 | 11 | ? | -14% | -27% | ?

# Whole records, quoted from the list.
# COc1ccc(C2c3c(-c4ccccc4O)n[nH]c3C(=O)N2Cc2ccco2)cc1OC (stereo not drawn) as listed: D2 ag: 0.1; D2 PAM: -2; CtBP-E1A inh: -18; gsp antag: 2%; gsp agonist: 5%[15.4 µM]; Six1-Eya2 blk: -10
# COc1ccc2cc(C(c3nnnn3CCc3ccccc3)N3CCCC(C)C3)c(=O)[nH]c2c1 (stereo not drawn) as listed: D2 ag: 1.0; D2 PAM: 11; CtBP-E1A inh: 48; gsp antag: -22%; gsp agonist: -24%; Six1-Eya2 blk: 15
# COc1cc2[nH]c(=O)c(C(=O)NCc3ccccc3Cl)c(O)c2cc1OC as listed: D2 ag: 0.6; D2 PAM: 6; CtBP-E1A inh: -3; gsp antag: 9%; gsp agonist: -2%[15.4 µM]; Six1-Eya2 blk: 4

# Next section
structure | D2 ag | D2 PAM | CtBP-E1A inh | gsp antag | gsp agonist | Six1-Eya2 blk
COc1ccc(S(=O)(=O)N(C)CC(=O)N2CCOCC2)cc1 | -0.6 | -5 | -6 | 1% | ? | 0
c1ccc(COc2ccccc2CNCc2cccnc2)cc1 | 4.1 | -15 | 4 | -1% | 18% | 2
Cc1ccccc1C(=O)NC(NCC1CCCO1)C(Cl)(Cl)Cl (stereo not drawn) | -1.7 | -16 | 0 | 2% | 1% | -4
COc1ccc(-c2noc(N3CCC(C(=O)NCCCN4CCCC(C)C4)CC3)n2)cc1 (stereo not drawn) | -1.2 | -8 | 3 | 13% | ? | 0
Cc1ccc(-c2nn3c(C)nnc3s2)cc1NC(=O)c1cccnc1 | 5.7 | -24 | 5 | 0% | 20%[15.4 µM] | -13
COc1ccc(/C=N/NC(=O)C2COc3ccccc3O2)cc1OC (stereo not drawn) | 1.1 | 0 | 5 | 0% | ? | -8
O=C(CSc1nc2ccccc2c(=O)n1-c1ccc(F)cc1F)NC1CC1 | 0.6 | -8 | -12 | . | -48%[inhibitor] | 0
Cc1nnc(N2CCC(C(=O)N3CCCCC3)CC2)c2nn(-c3ccc(Cl)cc3)c(C)c12 | -1.3 | -11 | 1 | -14% | 14% | 1
Cc1ccc(C(=O)Nc2ccccc2C(=O)N2CC3(C)CC2CC(C)(C)C3)cc1 (stereo not drawn) | -0.8 | 3 | -1 | -21% | -11% | -3
C=CCc1cccc(OC)c1OCCOCCn1ccnc1 | 0.6 | -1 | -4 | 7% | 20%[15.4 µM] | -4

# Part of the list above, with two lines to a compound:
# Second line of a record – D2 ag | D2 PAM | CtBP-E1A inh | gsp antag | gsp agonist | Six1-Eya2 blk
Cc1nnc(N2CCC(C(=O)N3CCCCC3)CC2)c2nn(-c3ccc(Cl)cc3)c(C)c12
  -1.3 | -11 | 1 | -14% | 14% | 1
Cc1ccc(C(=O)Nc2ccccc2C(=O)N2CC3(C)CC2CC(C)(C)C3)cc1 (stereo not drawn)
  -0.8 | 3 | -1 | -21% | -11% | -3
C=CCc1cccc(OC)c1OCCOCCn1ccnc1
  0.6 | -1 | -4 | 7% | 20%[15.4 µM] | -4

# The listing continues:
structure | D2 ag | D2 PAM | CtBP-E1A inh | gsp antag | gsp agonist | Six1-Eya2 blk
Cc1cc(C)n(-c2nc3ccccc3c(=O)n2OCC(=O)N(C)C)n1 | -1.9 | -4 | 2 | -2% | 14% | 15
COc1cccc(Sc2ccccc2/C=N/NC(N)=O)c1 | 3.1 | -1 | 8 | 13% | -21% | -2
CCN(CC)S(=O)(=O)c1ccc(C(=O)NCc2ccc3c(c2)cc(C)n3C)cc1 | -3.3 | -2 | -7 | -2% | -1% | -3
CC(=O)c1c(O)cc(O)c(C(C)=O)c1O | 10 | -26 | 6 | ? | . | 5
N/C(=N\OC(=O)/C=C/c1ccccc1Cl)c1ccncc1 | ? | 18 | ? | 0% | 21% | -5
CCCN[C@@H]1C(=O)N2C(C(=O)OCCC)=C(C)CS[C@H]12 | -2.2 | -4 | -26 | 2% | . | -15
COc1ccc(CNC[C@@H](CCCCN(C)Cc2ccc(OC)cc2)N2C[C@H](c3ccccc3)N(CCc3ccc(Cl)c(Cl)c3)C(=O)C2=O)cc1 | 10 | 5 | -20 | 16% | . | -17
COc1ccc(N=C2CC(C)(C)CC(=O)/C2=C(/O)c2ccccc2)cc1 | -0.1 | -4 | 8 | -7% | 21% | 5
COc1cc2c(cc1OC)-c1nnnn1C(C)(C)C2 | 1.2 | -5 | 2 | -16% | 18% | -1
Cc1sc2nc(C)n(/N=C/c3ccc(O)cc3)c(=O)c2c1C | 1.5 | 7 | -14 | 9% | -19% | -4
CCN1CCN(C(C)C(=O)NC2CCCCC2)CC1 (stereo not drawn) | -6.6 | -13 | . | -4% | -15% | 4

# Rows were taken by chance; any-hit rate near 1.4%.
